HPGD block: qHTS Assay for Inhibitors of HPGD (15-Hydroxyprostaglandin Dehydrogenase); 15-hydroxyprostaglandin dehydrogenase [NAD(+)] (Homo sapiens), P15428; purified HPGD, NADH fluorescence kinetic, PGE2 substrate; Potency, µM, for the others: at the top dose activity change, negative = inhibition, usual class: inhibitors; 150,000 tested, 4.3% active; active = well fitted inhibition curve with a large enough effect (not every such curve was filed as active); inconclusive = small, poorly fitted or top-dose-only effect, or another doubt; inactive = no such curve, though single readings can be large or run the other way;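 further: top concentration of the series not given in the record; plate controls included wells without enzyme; inactives centre near -10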
Target sequence (P15428 whole entry, looked up): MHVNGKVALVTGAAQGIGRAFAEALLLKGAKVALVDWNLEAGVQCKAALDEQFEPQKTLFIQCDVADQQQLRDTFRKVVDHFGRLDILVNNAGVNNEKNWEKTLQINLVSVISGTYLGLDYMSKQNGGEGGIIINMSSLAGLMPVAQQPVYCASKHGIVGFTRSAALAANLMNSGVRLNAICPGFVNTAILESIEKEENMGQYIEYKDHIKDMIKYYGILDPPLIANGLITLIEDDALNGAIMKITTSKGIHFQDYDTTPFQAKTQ
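NADH formation kinetics: reaction with 30 uM PGE2 and 1 mM NAD+ (final), 20 nM enzyme, Tris-HCl pH 8 with Tween 20, after 15 min compound preincubation at room temperature. Fluorescence change, last versus first of five reads.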
* hit, by the source's call; & = joins results of further samples. On the % scale 0 is the no-effect control and ±100 the full control effect; potency means the concentration at half of the fitted maximal effect.

Results for O=C(Cn1cc(C(=O)C2CC2)c2ccccc21)NCc1ccc2c(c1)OCO2 ?
HPGD block: -4.4%

Results for O=C1CCCN1c1ccc(CNS(=O)(=O)c2ccc(F)cc2)cc1 ?
HPGD block: -20.6%

Results for O=S(=O)(Nc1nc2ccccc2[nH]1)c1ccc(Cl)cc1 ?
HPGD block: -12.0%

Results for COc1ccc(OC)c(S(=O)(=O)N2CCC(C(=O)NC(C)c3ccccc3)CC2)c1 (stereo not drawn) ?
HPGD block: -3.9%

What do the screens show for `CCc1nnc(NC(=O)c2ccc(S(=O)(=O)N(CC(C)C)CC(C)C)cc2)o1`?
HPGD block: -8.7%

Results for COc1ccc(-c2nc(CSCC(=O)NCc3ccco3)c(C)o2)cc1 ?
HPGD block: inconclusive

How did CN1C(=O)CC(N2CCN(C(=O)CN3CCCC3)CC2)C1=O (stereo not drawn) do in these assays?
HPGD block: 0.2%

What do the screens show for `Cc1nc(P(=O)(c2ccccc2)c2ccccc2)c(N2CCOCC2)o1`?
HPGD block: 0.7%

Results for CCCOc1ccc(N2CC(C(=O)Nc3ccc4c(c3)OCO4)CC2=O)cc1 (stereo not drawn) ?
HPGD block: -8.0%

What do the screens show for `C=CCn1c(CCn2c3ccccc3c3ccccc32)n[nH]c1=S`?
HPGD block: inconclusive

What do the screens show for `COc1cccc(-n2c(SC)nnc2-c2c[nH]c3ccccc23)c1`?
HPGD block: -14.4%

Results for Cc1occc1C(=O)NNC(=O)Nc1ccc(Cl)c(Cl)c1 ?
HPGD block: -12.5%

Results for CCNC(=S)N1CCNC(=O)C1CC(=O)OC (stereo not drawn) ?
HPGD block: -8.8%

How did COc1cccc(Nc2nc(C)cc(C)c2C#N)c1 do in these assays?
HPGD block: -21.5%

What do the screens show for `c1ccc(-c2ccc(CN3C[C@@H]4C(c5ccccc5)C5(c6ccccc6)CC4(C5)[C@H]3c3ccccc3)cc2)cc1` (stereo partly drawn)?
HPGD block: -0.9%

How did Cc1nn2c(=O)cc(CSc3nc4ccccc4[nH]3)nc2s1 do in these assays?
HPGD block: -14.4%

What do the screens show for `O=C(O)CC(c1ccc(Cl)cc1)N1C(=O)CCC1=O` (stereo not drawn)?
HPGD block: -2.2%

What do the screens show for `COc1ccc(C2=NO[C@@H]3C(=O)N(c4ccc(C)cc4C)C(=O)[C@H]23)cc1OC`?
HPGD block: -13.3%

How did O=C(NNc1nc2cc3c(cc2s1)OCO3)c1ccccc1 do in these assays?
HPGD block: inconclusive

How did CCN(CC)S(=O)(=O)c1ccc(Oc2ccc(S(=O)(=O)N(CC)CC)cc2)cc1 do in these assays?
HPGD block: -3.8%

How did CCOC(=O)c1ccc(NC(=O)C2CCCN(S(=O)(=O)c3cnc[nH]3)C2)cc1 (stereo not drawn) do in these assays?
HPGD block: -9.8%

How did Cc1ccc(C(=O)c2c(NC(=O)c3ccncc3)sc3c2CCCC3)cc1 do in these assays?
HPGD block: -22.2%

How did COc1cccc(-c2nc(NCc3cnc(C)cn3)c3ccccc3n2)c1 do in these assays?
HPGD block: -10.5%

What do the screens show for `Nc1nnc(SCCN2C(=O)c3ccccc3S2(=O)=O)s1`?
HPGD block: -12.2%

Already shown: an excerpt of the list.
How did COc1cccc(-c2nc(NCc3cnc(C)cn3)c3ccccc3n2)c1 do in these assays?
HPGD block: -10.5%

What do the screens show for `Nc1nnc(SCCN2C(=O)c3ccccc3S2(=O)=O)s1`?
HPGD block: -12.2%

The main list resumes with the 4 entries that preceded the break.
How did CCOC(=O)c1ccc(NC(=O)C2CCCN(S(=O)(=O)c3cnc[nH]3)C2)cc1 (stereo not drawn) do in these assays?
HPGD block: -9.8%

How did Cc1ccc(C(=O)c2c(NC(=O)c3ccncc3)sc3c2CCCC3)cc1 do in these assays?
HPGD block: -22.2%

How did COc1cccc(-c2nc(NCc3cnc(C)cn3)c3ccccc3n2)c1 do in these assays?
HPGD block: -10.5%

What do the screens show for `Nc1nnc(SCCN2C(=O)c3ccccc3S2(=O)=O)s1`?
HPGD block: -12.2%

How did CCCCCCCCCCCCCCCC[n+]1ccc(/C=N/O)cc1 do in these assays?
HPGD block: -2.2%

Results for COc1ccccc1N1CCN(C(=O)c2cc3c(=O)n(C)c4ccccc4c3n2C)CC1 ?
HPGD block: -14.5%

How did COc1cccc(C(=O)N2c3ccccc3Sc3ccccc32)c1 do in these assays?
HPGD block: 14.1µM*

Results for CC(C)(C)NC(=O)Nc1ccc2nccnc2c1 ?
HPGD block: inconclusive

How did CC(C)CCn1c(SCC(=O)N2CC(=O)Nc3ccccc32)nc2scc(-c3cccs3)c2c1=O do in these assays?
HPGD block: -12.8%

Results for CN(C)/C=N/c1ncnc2c1cnn2-c1ccc(C(F)(F)F)cn1 ?
HPGD block: -11.7%

Results for COc1cc([N+](=O)[O-])ccc1NC(=O)CCCOc1ccc(C)cc1 ?
HPGD block: -11.6%

What do the screens show for `CCc1nc(NCCc2ccccn2)c2nnn(Cc3ccccc3F)c2n1`?
HPGD block: -8.6%

Results for CCOC(=O)c1c(NC(=O)c2cccs2)sc(C)c1CC ?
HPGD block: inconclusive

How did Cc1ccc(C(=O)CSc2nnc(COc3cc(C)cc(C)c3)o2)cc1 do in these assays?
HPGD block: -10.3%

What do the screens show for `CCN1CCN(C(=O)C2CCN(S(=O)(=O)c3cccc4cccnc34)CC2)CC1`?
HPGD block: -10.6%

Results for CCOc1cc(C=O)ccc1OCCSc1ccc(C)cc1 ?
HPGD block: 17.8µM*

How did Cc1ccc(C2C3=C(CCCC3=O)OC3=C2C(=O)CCC3)cc1 do in these assays?
HPGD block: 5.5%

Results for COc1cc(NC(=O)c2cc(-c3cccs3)on2)cc(OC)c1OC ?
HPGD block: -15.0%

How did COc1cc2c(cc1O)CCN(C(=O)c1ccco1)C2C (stereo not drawn) do in these assays?
HPGD block: -25.4%

How did Cc1cccc(N2CCN(C(=O)Cn3sc4nc(C)cc(C)c4c3=O)CC2C)c1 (stereo not drawn) do in these assays?
HPGD block: 3.16µM*

How did Cc1occc1C(=O)NC(C)C1CCCO1 (stereo not drawn) do in these assays?
HPGD block: -2.4%

What do the screens show for `O=C1c2ccccc2C(=O)C12OC2c1ccc(Cl)cc1Cl` (stereo not drawn)?
HPGD block: -18.2%

What do the screens show for `CCOc1ccc2c(c1)n(CO)c(=S)n2CO`?
HPGD block: inconclusive

How did CNC(=O)C1=C(C)n2c(nc3ccccc32)NC1c1ccc(OC)cc1 (stereo not drawn) do in these assays?
HPGD block: -4.0%

What do the screens show for `CN(C)S(=O)(=O)NC(c1ccccc1)c1ccccc1`?
HPGD block: 1.8%

How did Cc1nnc(SCc2ccc3c(c2)OCO3)s1 do in these assays?
HPGD block: inconclusive

How did Cc1noc(C)c1COC(=O)c1cc2ccccc2cc1O do in these assays?
HPGD block: -13.1%

How did Nc1nc(NCc2ccccc2)nc(NCc2ccccc2)c1[N+](=O)[O-] do in these assays?
HPGD block: -2.2%

Results for COc1ccc(CC(=O)Nc2ccc3c(c2)CCC3)cc1 ?
HPGD block: -0.4%

Results for O=C(CSCc1ccc(Cl)cc1)Nc1ccc(S(=O)(=O)N2CCOCC2)cc1 ?
HPGD block: -10.9%

Results for S=C(NCc1cccnc1)Nc1cccc(Cl)c1 ?
HPGD block: -22.8%

Results for O=C(CSc1nnc(-c2cccs2)o1)c1cccs1 ?
HPGD block: -28.5%

How did COc1cc(OC)c(OC)cc1CNc1cc(C)ccc1OC do in these assays?
HPGD block: -7.1%

What do the screens show for `COc1ccc(C(=S)N2CCNCC2)cc1`?
HPGD block: -5.5%

How did CCCCCC(=O)NN=C1CCN(Cc2ccccc2)CC1 do in these assays?
HPGD block: -8.2%

What do the screens show for `COc1ccccc1C1CC(=O)NC(SCC(=O)Nc2ccccc2)=C1C#N` (stereo not drawn)?
HPGD block: -8.2%

What do the screens show for `C=CCNC(=O)c1ccccc1NC(=O)c1ccccc1`?
HPGD block: -6.7%

How did O=C(O)c1ccc2c(c1)C(=O)N(Cc1ccccc1)C2=O do in these assays?
HPGD block: 14.1µM*

What do the screens show for `Cc1[nH]nc2c1C1(CCC(c3ccccc3)CC1)C(C#N)=C(N)O2` (stereo not drawn)?
HPGD block: -6.3%

How did Cc1ccc(S(=O)(=O)c2n[nH]n3c2nc(=O)c2ccccc23)cc1 do in these assays?
HPGD block: inconclusive

How did O=[N+]([O-])c1cc(S(=O)(=O)NCCN2CCOCC2)ccc1Sc1nnnn1-c1ccccc1 do in these assays?
HPGD block: -8.4%

Results for Cc1ccc2nc3sc(-c4nnc(-c5ccccc5[N+](=O)[O-])o4)c(N)c3cc2c1 ?
HPGD block: -14.1%

How did CCCN1CCN(C(=O)Nc2ccc(C(=O)OCC)cc2)CC1 do in these assays?
HPGD block: -17.6%

Results for COc1ccc(-c2nc3c(c4c2C[C@H](c2ccccc2)OC4)CN(S(=O)(=O)c2ccc4c(c2)OCCN4C)CC3)c(C)c1 ?
HPGD block: -0.2%

Results for CC1CCc2cc(F)cc3c(=O)c(C(=O)O)cn1c23 (stereo not drawn) ?
HPGD block: -24.5%&-12.8%

Results for C(=N\N(c1ccccc1)c1ccccc1)/c1ccc(N2CCOCC2)s1 ?
HPGD block: -11.2%

How did CSc1n[nH]c(NC(C)=O)n1 do in these assays?
HPGD block: -2.4%

Results for Cc1nc(Nc2c(Cl)cccc2Cl)sc1C(=O)Nc1ccccc1 ?
HPGD block: -1.7%

What do the screens show for `O=C(CNC(=O)c1ccc(-c2ccccc2)cc1)OCc1ccc(Br)cc1`?
HPGD block: inconclusive

Results for CCOC(=O)CSc1nc2cc(OCC)ccc2cc1C#N ?
HPGD block: inconclusive

What do the screens show for `CC(C)Cn1cnc2c(=O)oc3ccccc3c21`?
HPGD block: -22.5%

Results for CC(C)N=C1SCC(C)(/C=N/O)S1 (stereo not drawn) ?
HPGD block: -10.2%

Reprinted at random: 2 entries already listed
Results for CC(C)N=C1SCC(C)(/C=N/O)S1 (stereo not drawn) ?
HPGD block: -10.2%

How did CCCN1CCN(C(=O)Nc2ccc(C(=O)OCC)cc2)CC1 do in these assays?
HPGD block: -17.6%

Later entries:
What do the screens show for `Cc1sc2nc(CN3CCOCC3)nc(N3CCOCC3)c2c1C`?
HPGD block: -10.2%

How did O=C(CSc1nnc(-c2ccc(S(=O)(=O)N3CCCC3)cc2)o1)NCc1ccccc1 do in these assays?
HPGD block: -18.3%

What do the screens show for `Cc1nc2cc(NC(=O)N3c4ccccc4CC3C)ccc2o1` (stereo not drawn)?
HPGD block: 1.8%

How did Cc1ccc(S(=O)(=O)N2CCN(C(=O)C3=COCCO3)CC2)cc1C do in these assays?
HPGD block: -11.9%

Results for COc1cc2c(cc1NC(=O)C(C)NCc1ccccc1)oc1ccccc12 (stereo not drawn) ?
HPGD block: inconclusive

What do the screens show for `COn1c(SC2CCCCC2)nc2ccccc2c1=O`?
HPGD block: 31.6µM*

How did COc1ccc2nc3cc(Cl)ccc3c(Nc3ccc(O)c(CN4CCN(C)CC4)c3)c2c1 do in these assays?
HPGD block: 3.4%

Results for COC(=O)N[C@H](CC(C)=O)c1ccccc1 ?
HPGD block: -7.9%

What do the screens show for `COc1cccc(NC(=O)COC(=O)c2cccnc2)c1`?
HPGD block: -13.0%

Results for O=C(Nc1nc2ccccc2c2nc3ccccc3n12)c1ccc(F)cc1 ?
HPGD block: -9.1%

Results for CCC(C)(C(=O)NC1CCCC1)N(C(C)=O)c1ccc(C)cc1 (stereo not drawn) ?
HPGD block: -4.9%

Results for Cc1ccnc(NC(=O)Nc2cccc(F)c2)c1 ?
HPGD block: -5.6%

How did CCOC(=O)N1CCC2(CC1)C(C#N)=C(N)OC1=C2C(=O)CC(C)(C)C1 do in these assays?
HPGD block: -1.6%

Results for Nc1c(C(=O)NCc2ccco2)nnn1Cc1ccccc1 ?
HPGD block: -5.5%

Results for CCOC(=O)C1=C(CS(=O)(=O)c2ccccc2)NC(=O)NC1c1ccccc1OCC (stereo not drawn) ?
HPGD block: 0.3%

Results for CCc1ccc(NC(=O)N(CCOC)C2CCN(C(C)=O)CC2)cc1 ?
HPGD block: -0.3%

What do the screens show for `Brc1ccc(CSc2nccn2-c2ccccc2)cc1`?
HPGD block: -9.7%

How did COc1ccc(NC(=O)CSc2nnc(CNC(=O)c3ccco3)n2-c2ccccc2OC)cc1 do in these assays?
HPGD block: -10.1%

How did C[N+](C)(C)C(C1=CCCC1=O)c1ccccc1 (stereo not drawn) do in these assays?
HPGD block: -0.8%

What do the screens show for `CCOC(=O)C1=C(c2ccccc2)N=c2s/c(=C\c3ccc(O)cc3)c(=O)n2C1c1cccs1` (stereo not drawn)?
HPGD block: -25.8%

What do the screens show for `COC(=O)[C@@]1(Cc2ccc(F)cc2)[C@H]2c3cc(C(=O)N(C)C)n(Cc4ccc(O)c(OC)c4)c3C[C@H]2CN1C(=O)c1ccccc1`?
HPGD block: -1.4%

Results for Cc1ccccc1N1CCN(Cc2c[nH]c3ccccc23)CC1 ?
HPGD block: -2.8%

What do the screens show for `O=C(CCc1ccc(S(=O)(=O)NCc2ccccc2)cc1)NCc1ccco1`?
HPGD block: -14.9%

What do the screens show for `COc1ccc(CN=C(NS(=O)(=O)c2cccs2)SC)cc1`?
HPGD block: -7.2%

Results for O=C(Cc1ccccc1[N+](=O)[O-])NCc1ccc(Cl)cc1 ?
HPGD block: -10.9%

Results for Cc1ccc(-c2nc(C3CCCN(S(=O)(=O)c4ccc(C)cc4)C3)no2)cc1 (stereo not drawn) ?
HPGD block: -11.4%

What do the screens show for `COc1cccc(/C=C/c2ccncc2)c1OC`?
HPGD block: -20.9%

What do the screens show for `COc1cccc(N2CC(C(=O)OC(C)C(=O)c3ccccc3)CC2=O)c1` (stereo not drawn)?
HPGD block: -7.4%

What do the screens show for `CCC(=O)N/N=C(\C)CC(=O)Nc1cccc([N+](=O)[O-])c1`?
HPGD block: 0.5%

What do the screens show for `COc1ccc(OC)c(S(=O)(=O)N2CCCCC2C(=O)N2CCN(c3ccccn3)CC2)c1` (stereo not drawn)?
HPGD block: -14.0%

Compound activity (PubChem BioAssay)

The list is partial; count on the stated rates, not on these rows.
